From PubChem BioAssay
HPGD inh: HPGD (human) dehydrogenase inhibition | hit rate 4.3% among 150,000 | purified HPGD, NADH fluorescence kinetic, PGE2 substrate | AID 894 | Potency, µM, without a hit: at the highest dose activity change, negative = inhibition, hits mostly inhibitors | P15428; active = well fitted inhibition curve with a large enough effect (not every such curve was filed as active); inconclusive = small, poorly fitted or top-dose-only effect, or another doubt; inactive = no such curve, though single readings can be large or run the other way;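 also: top concentration of the series not given in the record; plate controls included wells without enzyme; inactives centre near -10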
Target sequence (P15428 whole entry, looked up): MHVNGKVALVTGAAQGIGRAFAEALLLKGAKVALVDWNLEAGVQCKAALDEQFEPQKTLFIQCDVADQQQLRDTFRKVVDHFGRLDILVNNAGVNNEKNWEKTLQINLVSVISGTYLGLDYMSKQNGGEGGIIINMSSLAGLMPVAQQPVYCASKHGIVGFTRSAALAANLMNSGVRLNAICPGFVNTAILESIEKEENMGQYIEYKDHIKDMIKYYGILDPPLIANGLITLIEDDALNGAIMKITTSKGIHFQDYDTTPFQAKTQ
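NADH formation kinetics: reaction with 30 uM PGE2 and 1 mM NAD+ (final), 20 nM enzyme, Tris-HCl pH 8 with Tween 20, after 15 min compound preincubation at room temperature. Fluorescence change, last versus first of five reads.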
* = called active by the depositor; ? = inconclusive; & = joins results of further samples. % is scaled to controls: 0 for no effect and ±100 for the full control effect; potency is read from the fitted curve at half-maximal effect.

| mol | HPGD inh |
| --- | --- |
| CC1CCCN(C(=O)COC(=O)c2n[nH]c3ccccc23)C1 (configuration not stated) | -28% |
| CC(C)NC(=O)NC(=O)COC(=O)c1ccc(NC(=O)CC#N)cc1 | -5% |
| O=C(CCSCc1ccccc1F)N1CCN(c2ccccn2)CC1 | -4% |
| O=C(Nc1ccn(Cc2c(F)c(F)c(F)c(F)c2F)n1)c1ccc(COc2ccccc2Cl)cc1 | -18% |
| CCC(C)NC(=O)C1CCN(C(=O)c2ccccc2)CC1 (configuration not stated) | -5% |
| Cc1ccc(S(=O)(=O)N2CCC(C(=O)NCc3cccnc3)CC2)cc1 | -5% |
| O=C(/C=C/c1ccc(Cl)cc1)NCc1ccncc1 | -18% |
| NC(N)=NC[C@@H]1CCCCCCN1 | -10% |
| CCOC(=O)c1[nH]c2ccc(OC)cc2c1NC(=O)CCN1CCSCC1 | ? |
| CC(C)(C)n1nnnc1C(c1cccnc1)N(Cc1ccccc1)Cc1ccco1 (configuration not stated) | -2% |
| CC(C)(Oc1ccc(Cl)cc1)C(=O)OCC(=O)Nc1ncc(Cl)cc1Cl | -4% |
| COc1ccc(CC(=O)Nc2c3c(nn2C(C)(C)C)CS(=O)C3)cc1 (configuration not stated) | -8% |
| C[C@H](N)C(=O)O | 1% |
| COC(=O)c1ccccc1N/C=C/C(=O)c1ccc(Br)cc1 | -19% |
| O=C(NCc1ccc2c(c1)OCO2)c1ccc(NS(=O)(=O)c2ccc3c(c2)OCCO3)cc1 | -1% |
| COc1cc2c(cc1OC)OC(C)(C)C=C2 | -9% |
| Cc1ccc(-c2cc(C(=O)NCc3cnn(C)c3)c3cc(Br)ccc3n2)cc1 | -15% |
| CCOc1ccc(NCC(=O)Nc2ccc(Cl)cc2C)cc1 | -5% |
| CCn1c(C)nc2cc(S(=O)(=O)N3CCCCC3)ccc21 | -14% |
| Cc1cc(F)ccc1NCc1cc2c(cc1[N+](=O)[O-])OCO2 | -17% |
| Cc1nc(N2CCOCC2)c(C#N)c2c1COC(C)(C)C2 | ? |
| Brc1cccc(-c2nnc(-c3ccccc3)o2)c1 | -14% |
| CCCCCCCCCCCCCCCC(=O)C(F)(F)F | 0% |
| Cc1[nH]n(-c2ccccc2)c(=O)c1C(c1ccccc1C(=O)O)c1c(C)[nH]n(-c2ccccc2)c1=O | -2% |
| Cc1cc(C)c(NC(=O)CN(C2CCCCC2)C2CCCCC2)c(C)c1 | -7% |
| COC(=O)c1ccc(C)c(-n2c(C)cc(C=O)c2C)c1 | -21% |
| O=C(c1ccc([N+](=O)[O-])s1)N1CCN(c2ccccc2)CC1 | -10% |
| CCOc1ccccc1NC(=O)Cn1c(=O)c2ccccc2n(CC)c1=O | -20% |
| Cc1ccc(S(=O)(=O)N2CCCC2)cc1S(=O)(=O)N1CCCC1 | -11% |
| CC(=O)NC1CC2CCCC(C1)N2CC(=O)N1CCCc2ccccc21 (configuration not stated) | -10% |
| O=[N+]([O-])O[C@H]1CO[C@H]2[C@@H]1OC[C@H]2O | -3% |
| CN1CCC(Oc2ccccc2Sc2ccccc2)CC1 | 6% |
| CN1CCN(NC(=O)c2ccc(Cl)c([N+](=O)[O-])c2)CC1 | -11% |
| COCCCNC(=O)c1ccc(CS(=O)(=O)Cc2cccc(C)c2)o1 | -3% |
| N#CC1=C(N)NC(SCc2ccc(Cl)cc2)=C(C#N)C12CCCCC2 | -25% |
| COc1ccc(CCNC(=O)/C(C#N)=C/c2cccc(OCc3ccccc3)c2)cc1OC | -17% |
| NC(=O)c1ccsc1NC(=O)c1ccco1 | -1% |
| O=C(/C=C/c1ccc(Cl)cc1)NCCSc1ccccc1 | -8% |
| CC(=O)N1CCN(c2ccc(OC[C@@H]3CO[C@@](Cn4ccnc4)(c4ccc(Cl)cc4Cl)O3)cc2)CC1 | 1% |
| CC(NC(=O)c1ccc(CS(=O)(=O)Cc2ccccc2F)o1)c1ccc2c(c1)OCCO2 (configuration not stated) | 4% |
| CCC(NC(=O)Nc1cc(OC)c(OC)c(OC)c1)(C(F)(F)F)C(F)(F)F | -16% |
| Cc1c(C(=O)O)cccc1[N+](=O)[O-] | 0% |
| COC(=O)c1ccc(CSc2ccc3nnc(-c4cccc(F)c4)n3n2)o1 | ? |
| O=C(CCCN1C(=O)/C(=C/c2cccs2)SC1=S)NNC(=O)c1ccccc1O | -6% |
| CCn1ncc(Br)c1C(=O)Nc1ccn(C23CC4CC(CC(C4)C2)C3)n1 | -2% |
| CCOC(=O)C1=C(C)N(C)C(C)=C(C(=O)OCC)C1c1ccc(Cl)cc1 | ? |
| COc1ccc(OC)c(/C=N/NC(=O)c2[nH]nc3c2CCc2ccccc2-3)c1 | ? |
| CCOC(=O)c1snc2c(=O)[nH]cnc12 | ? |
| CCN(CC)S(=O)(=O)c1cccc(C(=O)NCCCN2CCOCC2)c1 | 0% |
| Cc1ccc(NC(=O)CS(=O)Cc2nc(-c3ccc(C)cc3)oc2C)cc1 (configuration not stated) | -14% |
| COc1cccc2c1OC1(C)CC2NC(=O)N1 (configuration not stated) | -4% |
| CCOC(=O)Cc1csc(NC(=O)COc2ccccc2OCC)n1 | -16% |
| COc1cccc(Cn2cnc3c(NS(=O)(=O)c4cc(Cl)ccc4Cl)c(C)c(C)cc32)c1 | -23% |
| O=C(Cn1cnc2nc3n(c2c1=O)CCC3)NCc1ccccc1 | -1% |
| Cc1[nH]c2ccccc2c1CC(=O)O | 5% |
| COc1ccccc1N1CCN(CCCC(=O)c2ccc(F)cc2)CC1 | 0% |

Of the compounds above, 4 contain bromine:
| mol | HPGD inh |
| --- | --- |
| COC(=O)c1ccccc1N/C=C/C(=O)c1ccc(Br)cc1 | -19% |
| Cc1ccc(-c2cc(C(=O)NCc3cnn(C)c3)c3cc(Br)ccc3n2)cc1 | -15% |
| Brc1cccc(-c2nnc(-c3ccccc3)o2)c1 | -14% |
| CCn1ncc(Br)c1C(=O)Nc1ccn(C23CC4CC(CC(C4)C2)C3)n1 | -2% |

Remaining list, next part:
| mol | HPGD inh |
| --- | --- |
| Cc1ccc2cc(C(c3nnnn3C3CCCC3)N3CCOCC3)c(=O)[nH]c2c1C (configuration not stated) | -16% |
| CN1CCN(S(=O)(=O)c2ccc(N(C)Cc3cccs3)nc2)CC1 | -11% |
| O=C1C2CCCN2C(=O)N1CCN1CCN(CCO)CC1 (configuration not stated) | -4% |
| CCCCCCCCC(=O)NC(NC(=S)N1CCOCC1)C(Cl)(Cl)Cl (configuration not stated) | -21% |
| CC(C)COCC(CN(Cc1ccccc1)c1ccccc1)N1CCCC1 (configuration not stated) | 4%&-5% |
| Nc1c(-c2ccc(Cl)cc2)cnc2ncnn12 | -13% |
| Cc1cc(NC(=O)COC(=O)CSCc2ccc(Cl)c(Cl)c2)no1 | -18% |
| CC(c1ccc(Br)cc1)N1CC23C=CC(O2)C(C(=O)O)C3C1=O (configuration not stated) | -10% |
| Nc1ccc(-n2nnnc2-c2ccco2)cc1 | -3% |
| C=CCNC(=O)c1ccccc1NS(=O)(=O)c1ccc(SC)cc1 | 1% |
| CCN1C(=O)N(CC)C2C1N(C(C)=O)C(=O)N2C(C)=O (configuration not stated) | 3% |
| COc1ccccc1C(=O)Nc1sc2c(c1C(=O)NCc1ccco1)CCCC2 | ? |
| Cc1sc2nc(COC(=O)C(NC(=O)c3ccc(Cl)cc3Cl)C(C)C)[nH]c(=O)c2c1C (configuration not stated) | -17% |
| Cc1cc(C(F)(F)F)nn1CC(=O)NCc1ccccc1 | 1% |
| CC(C)NC(=O)c1sc2nc3c(c(-c4cccs4)c2c1N)CN(C)CC3 | -13% |
| O=C(NCc1ccco1)c1cc2nc(C3CC3)cc(C(F)(F)F)n2n1 | 18µM* |
| Cc1sc(-c2ccccn2)nc1OC(=O)c1cccc(Cl)c1Cl | -17% |
| Cc1cccc(Oc2cc([N+](=O)[O-])cc3c2C(=O)Nc2ccccc2O3)c1 | -11% |
| COc1ccc2c(CC(=O)Nc3cccc(S(=O)(=O)N4CCOCC4)c3)coc2c1 | -8% |
| COc1cc(NC(=O)c2onc(C)c2Cl)c(OC)cc1Cl | -21% |
| CC(=O)NN1C(=O)c2ccccc2NC1c1ccccn1 (configuration not stated) | ? |
| CCCCCC/C(C=O)=C\c1ccccc1 | -6% |
| NNC(=O)COc1ccc(F)cc1 | -7% |
| O=CNC(Cc1ccccc1)C(=O)O (configuration not stated) | 3% |
| COc1cccc(/C=C2\C(=O)C(=O)c3ccccc32)c1 | 3.5µM* |
| Cc1nnc(SCc2ccccc2)nc1/C=C/NOCc1ccc(Cl)cc1Cl | -14% |
| COC(=O)CNC(c1ccccc1)c1cc(Cl)ccc1NC(=O)c1cccc(Cl)c1 (configuration not stated) | -10% |
| CCc1nnc(NC(=O)Nc2ccccc2OC)s1 | 1% |
| CC1(C)CC(=O)c2c(oc3cc4c(cc23)OCO4)C1 | 2.5µM* |
| Cc1ccc(NC(=O)c2ccc(OC(=S)N3CCOCC3)cc2)cc1 | -25% |
| c1ccc(-c2csc(Nc3ncccn3)n2)cc1 | -1% |
| O=C(NCCN1CCCCC1)c1ccc2c(c1)OCCO2 | 8.9µM* |

Two entries picked at random from those above, as already listed:
| mol | HPGD inh |
| --- | --- |
| O=C(NCCN1CCCCC1)c1ccc2c(c1)OCCO2 | 8.9µM* |
| CC1(C)CC(=O)c2c(oc3cc4c(cc23)OCO4)C1 | 2.5µM* |

The listing continues:
| mol | HPGD inh |
| --- | --- |
| CN(C)S(=O)(=O)c1ccc(C(=O)NCCOc2ccc(F)cc2)cc1 | 4% |
| Cc1nnc(NC(=O)CSc2nc(C(C)C)nc3sc(C)c(C)c23)s1 | -8% |
| COc1ccc2c(c1)OC/C(=C/c1ccc(OC)c(OC)c1)C2=O | -29% |
| C[C@@H]1C[C@@H]2[C@H]3CCC4=CC(=O)C=C[C@]4(C)[C@]3(F)[C@@H](O)C[C@@]2(C)[C@@]1(O)C(=O)CO | -9% |
| COc1ccccc1-c1cc(C(F)(F)F)nc(N2CCN(c3ccccc3)CC2)n1 | -9% |
| CCCNC(=S)N1CCN(C)CC1 | -6% |
| COc1ccc(CNC(=O)COC(=O)c2ccc(OCc3c(C)noc3C)cc2)cc1OC | -1% |
| CCCn1c(-c2ccc(F)cc2)nc2c(NC3CCN(Cc4ccccc4)C3)nc(C)nc21 (configuration not stated) | -27% |
| O=C(Nc1ccccc1N1CCCC1)c1cccnc1Cl | -10% |
| Cc1cc2nc(-c3ccc(SCC(=O)N4CCN(C(=O)c5ccco5)CC4)nc3)[nH]c2cc1C | ? |
| O=C(C1CCCN1S(=O)(=O)c1cccc2cccnc12)N1CCn2c1nc1ccccc12 (configuration not stated) | -12% |
| CC(=O)c1cccc(NC(=O)C2CCN(S(=O)(=O)c3ccc(C)cc3)CC2)c1 | -5% |
| CCOC(=O)c1c(NC(=O)OC)sc2c1CCC2 | -4% |
| Cc1ccc(N2CCCCn3c2nc2c3c(=O)[nH]c(=O)n2C)cc1 | -19% |
| Cc1ccc(NC(=O)COC(=O)C2COc3ccccc3O2)cc1S(=O)(=O)N1CCOCC1 (configuration not stated) | -4% |
| CC(=O)N1CCN(c2ccc(Nc3ncnc4c3oc3ccccc34)cc2)CC1 | -25% |
| CCOc1c(OC(C)=O)ccc(/C=C/c2ccc3cccc(OC)c3n2)c1[N+](=O)[O-] | -21% |
| O=c1[nH]cnc2nc[nH]c12 | -15% |
| Cc1ccc(/C=N/N2CCN(Cc3ccc(Cl)cc3)CC2)o1 | -35% |
| N#Cc1ccc(NC(=O)Nc2ccc(Cl)cc2)cc1 | -16% |
| O=C(CCc1ccccc1)Nc1ccc(Cl)cn1 | -11% |
| Cn1c(=NC(=O)c2ccccc2[N+](=O)[O-])sc2cc(S(C)(=O)=O)ccc21 | -22% |
| Cc1ccc(Nc2cc(=O)oc3ccccc23)c(C)c1 | -11% |
| O=C(Nc1nccs1)c1cc2sccc2n1Cc1ccc(F)cc1 | ? |
| Cn1cc(C(=O)c2cccc(Cl)c2Cl)cc1C(=O)O | -2% |
| CC(C)CC(=O)NC(=S)NCCc1ccccc1 | -16% |
| COc1cc(C(=S)N2CCOCC2)ccc1OC(=O)c1cc([N+](=O)[O-])cc([N+](=O)[O-])c1 | -17% |
| O=C(c1cccc(F)c1)N1CCN(S(=O)(=O)c2ccccc2)CC1 | -4% |
| CCc1ccc(CC2S/C(=C(\C#N)C(C)=O)NC2=O)cc1 (configuration not stated) | ? |
| O=S(=O)(NC1CCCCC1Sc1ncccn1)c1ccccc1 (configuration not stated) | -11% |
| O=C(CCN1CCCCC1)Nn1c(=S)[nH]c2ccccc2c1=O | -14% |
| O=C(Nc1cccc(NC(=O)c2ccc(-c3ccc(Br)cc3)o2)c1)c1ccccc1 | ? |
| O=C(NCCSc1ccccc1)c1cccnc1 | -29% |
| C/C(=N\NC(=O)CCCNc1ccc(C)cc1)c1ccccn1 | 1% |
| O=C(NCCCn1ccnc1)C(=O)NCC1OCCN1S(=O)(=O)c1ccc(F)cc1 (configuration not stated) | 0% |
| CC1(C)CC(=NOC(=O)c2ccccc2)CC(C)(C)N1O | -9% |
| N#Cc1nc(COc2ccccc2Cl)oc1NCc1ccc(F)cc1 | -22% |
| CCc1ccc2c(Cl)c(C(=O)N/N=C/c3c[nH]c4ccccc34)sc2c1 | -9% |
| CCOC(=O)NC(NCc1ccccc1Cl)(C(F)(F)F)C(F)(F)F | ? |
| COc1ccc(-c2cc(C(F)(F)F)nc(SCC(=O)Nc3cc(C)on3)n2)cc1 | ? |
| CC(=O)Nc1ccc(N2C(=O)C3C4CC(=O)C(c5ccccc54)C3C2=O)cc1 (configuration not stated) | -7% |
| Cc1ccc2c(c1)c1ncnc(N3CCC4(CC3)OCCO4)c1n2C | ? |
| O=C(OCC(=O)N1CCN(c2ccccc2)CC1)c1ccc2ccccc2n1 | -7% |
| O=C1C2C3C=CC(C3=C(c3ccccc3)c3ccccc3)C2C(=O)N1CCO (configuration not stated) | -5% |
| Cc1cccc(-c2cc3nc4c(c(N5CCCC(O)C5)n3n2)CCC4)c1 (configuration not stated) | -24% |

Some of the compounds tested. The share of hits here may be higher or lower than overall.
